# KCNQ2 enhance – potentiators of rat KCNQ2 potassium channel | Potassium voltage-gated channel subfamily KQT member 2 (Rattus norvegicus), O88943 | B-score at 10 µM | CHO-K1 KCNQ2, FluxOR thallium flux fluorescence; stronger effect = higher value | 0.54% of 310,000 active;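 active means fluorescence ratio B-score at least 3 SD of library B-scores, with initial fluorescence B-score within 3 SD, cut at about 5.3 in these data; same plate scores as AID 2156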;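 further: B-score of peak minus minimum over baseline fluorescence ratio after K+ and Tl+ stimulus; positive B-score means potentiation of KCNQ2 with more thallium influx and brighter signal; only the inactives scoring about 0 or higher are listed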
# Target sequence (O88943 whole entry, looked up): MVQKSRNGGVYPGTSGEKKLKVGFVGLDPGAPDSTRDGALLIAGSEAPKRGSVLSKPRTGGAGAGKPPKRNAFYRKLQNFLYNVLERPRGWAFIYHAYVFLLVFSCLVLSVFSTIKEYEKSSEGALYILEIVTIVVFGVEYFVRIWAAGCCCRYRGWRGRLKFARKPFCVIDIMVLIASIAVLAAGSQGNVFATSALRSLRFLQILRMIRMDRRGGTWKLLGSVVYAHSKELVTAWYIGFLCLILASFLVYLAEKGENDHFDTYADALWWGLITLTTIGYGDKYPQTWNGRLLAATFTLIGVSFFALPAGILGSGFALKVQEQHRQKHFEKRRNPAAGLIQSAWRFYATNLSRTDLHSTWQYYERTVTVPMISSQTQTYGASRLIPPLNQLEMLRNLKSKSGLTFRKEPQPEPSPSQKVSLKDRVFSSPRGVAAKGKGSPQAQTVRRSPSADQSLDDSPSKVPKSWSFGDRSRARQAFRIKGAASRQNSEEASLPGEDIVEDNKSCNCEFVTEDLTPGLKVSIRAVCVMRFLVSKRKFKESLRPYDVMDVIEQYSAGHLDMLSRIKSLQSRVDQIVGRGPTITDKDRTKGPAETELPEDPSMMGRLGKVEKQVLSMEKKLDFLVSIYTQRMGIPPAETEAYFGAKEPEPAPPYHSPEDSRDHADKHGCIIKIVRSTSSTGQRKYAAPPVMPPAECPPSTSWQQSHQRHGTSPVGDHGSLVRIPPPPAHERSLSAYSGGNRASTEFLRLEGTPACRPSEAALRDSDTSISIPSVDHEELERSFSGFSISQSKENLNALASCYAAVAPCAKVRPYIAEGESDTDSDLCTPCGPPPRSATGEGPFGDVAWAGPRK
# KCNQ2 enhance baseline – recorded beside KCNQ2 enhance, whose call it bears; B-score; compound at 10 µM; measured here: initial fluorescence intensity artifact check;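 brightness before thallium and not channel activity; 0 = typical well and far values either way flag optical interference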
# Active calls of the source: *. This is a subset; the hit share may differ from the screen's.
mol,KCNQ2 enhance,KCNQ2 enhance baseline
CCOC(=O)c1c(NC(=O)c2ccn(CC)n2)sc2c1CCC2,0.14,0.98
O=C(N/N=C/C(Br)=C/c1ccccc1)c1ccc([N+](=O)[O-])cc1,1.1,1
C=CCCCCCCCCC(=O)N1CCN(c2cc3c(cc2F)c(=O)c(C(=O)O)cn3CC)CC1,0.46,-0.59
Cn1c(N)c(C(=O)COC(=O)c2ccc(S(=O)(=O)N3CCCCC3)cc2)c(=O)n(C)c1=O,1.3,-0.09
N#Cc1c(Nc2ccccc2)c(C=NCCN2CCOCC2)c[nH]c1=O,0.3,-0.31
CCCCCSc1nc2c(c(=O)[nH]c(=O)n2C)n1CC,1.2,0.02
O=C(NCC(=O)N(CC1CCCO1)C(C(=O)NC1CCCC1)c1ccc(F)cc1)c1ccco1 (stereo unspecified),0.57,0.06
CN1CCN(CP(=O)(N2CCOCC2)N2CCOCC2)CC1,1.8,-2.2
O=C(NCc1ccc2c(c1)OCO2)C1CCN(c2ncccn2)CC1,1,-0.87
CCOC(=O)c1sc(=NC(=O)c2ccco2)n(C)c1C,0.41,0.44
CNC[C@H](O)c1ccc(O)c(O)c1,0.28,0.07
Cc1cc(C)n2[nH]c(=O)c(N=Nc3ccccc3)c2n1,2.2,-0.61
O=C(NCc1cc(Br)cc(Br)c1OC(=O)c1ccccc1[N+](=O)[O-])c1ccccc1,0.4,0.42
COC(=O)c1[nH]c2c(c1C(=O)OC)CCc1ccccc1-2,0.43,0.14
NCCCC[C@@H](C(=O)N1CCNCC1)n1cc([C@@H](N)CO)nn1,0.72,-0.67
O=C(CN1C(=O)/C(=C\c2cccc(F)c2)Oc2ccccc21)N1CCN(c2ccccn2)CC1,0.02,0.33
Cc1ccc(NC(=S)N2CC(C)OC(C)C2)cc1C (stereo unspecified),0.27,-0.8
O=C(NC1CCN(C(=O)c2ccccc2Br)CC1)c1ccccc1,0.92,2.6
Cn1cnc([N+](=O)[O-])c1Oc1cccc2ccccc12,1.1,0.01
Cc1ccc2c(c1)N(C(=O)CCC(=O)NCCCN1CCN(C)CC1)CCO2,1.6,0.45
N=c1nc(N)nc2n1NC(c1ccc(F)cc1)=CS2,2.1,0.51
CC1(C)C(=O)C2(C(=O)NCc3ccccc3)CCC1C2 (stereo unspecified),0.19,-1.2
Cc1ccccc1NC(=O)c1cccc(C(F)(F)F)c1,0.29,0.52
Cc1ccc(NC(=O)CSCC(=O)NCCc2ccccc2)cc1,1.5,-2.1
CCOC(=O)c1cc2n(n1)C(C(F)(F)C(F)(F)F)CC(C)N2 (stereo unspecified),0.01,-0.41
C=CCOC(=O)C1=C(C)NC(SCC(N)=O)=C(C#N)C1c1cccs1 (stereo unspecified),0.15,1.3
O=C(COc1ccccc1Cl)N1CCc2ccccc21,0.85,0.09
COC(=O)c1ccccc1NC(=O)CCCN1C(=O)C(c2ccccc2)Oc2cccnc21 (stereo unspecified),0.94,0
COc1cc(C2C(C(=O)OCCC#N)=C(C)NC3=C2S(=O)(=O)c2ccccc23)cc(OC)c1OC (stereo unspecified),0.07,0.02
Cc1cc(/C=C(/C#N)C(=O)O)c(C)n1CCC(C)C,0.72,-0.17

# Rewritten with each value named: 4 of the compounds above
O=C(COc1ccccc1Cl)N1CCc2ccccc21
  KCNQ2 enhance = 0.85; KCNQ2 enhance baseline = 0.09
COC(=O)c1ccccc1NC(=O)CCCN1C(=O)C(c2ccccc2)Oc2cccnc21 (stereo unspecified)
  KCNQ2 enhance = 0.94; KCNQ2 enhance baseline = 0
COc1cc(C2C(C(=O)OCCC#N)=C(C)NC3=C2S(=O)(=O)c2ccccc23)cc(OC)c1OC (stereo unspecified)
  KCNQ2 enhance = 0.07; KCNQ2 enhance baseline = 0.02
Cc1cc(/C=C(/C#N)C(=O)O)c(C)n1CCC(C)C
  KCNQ2 enhance = 0.72; KCNQ2 enhance baseline = -0.17

# The listing continues.
mol,KCNQ2 enhance,KCNQ2 enhance baseline
COc1ccccc1N1CCN(C(=O)CSc2nc(C)c(Cc3ccccc3)c(=O)[nH]2)CC1,9.2*,2.4*
O=C(CNCCc1ccc(F)cc1)Nc1cc(F)ccc1F,0.92,-1.8
c1ccc(-c2cc(-c3nnc4sc(-c5ccccn5)nn34)[nH]n2)cc1,1.3,1.3
COC(=O)c1ccccc1NC(=O)NC1CCCCC1,1.2,-0.51
Cc1cc(C)cc(OC(C)C(=O)NCCCn2ccnc2)c1 (stereo unspecified),0.26,1.9
Cc1cc(C)c(C#N)c(SC(F)F)n1,1.5,0.44
Cc1ccc(N(C)S(=O)(=O)c2cccc(C(=O)NC3=NCCS3)c2)cc1,0.77,0.49
Cc1ccc(C)c(CN2CCC(CNC(=O)CCc3nnc4ccc(N5CCCCC5)nn34)CC2)c1,0.57,-0.21
CCCCn1c(N)c(N(CC(C)C)C(=O)CSCC(=O)Nc2ccc(OC)cc2)c(=O)[nH]c1=O,0.22,0.42
O=C(OCCN1C(=O)c2ccccc2C1=O)c1cc(=O)[nH]c2ccccc12,1.6,-0.82
COc1nc(C)nc2c1sc1nc3c(cc12)COC(C)(C)C3,0.74,-0.94
CCC(c1nnnn1CCOC)N(Cc1cc2cc(C)c(C)cc2[nH]c1=O)CC1CCCO1 (stereo unspecified),1.1,-0.58
O=C(CNc1ccccc1)Nc1cccc2ccccc12,1.7,0.05
COC(=O)CCC(=O)N1CCCC(C(=O)c2ccc(Cl)cc2C)C1 (stereo unspecified),0.11,-1
Cc1oc(-c2ccc(Cl)cc2)nc1CS(=O)CC(=O)NCCCN1CCOCC1 (stereo unspecified),1.1,0.89
COC(=O)c1scc(C)c1N/N=C(\C)c1cc(F)c(Cl)cc1F,0.75,1.3
CCOC(=O)CN1CCS(=O)(=O)CC1,0.13,0.04
CCn1cc(C(=O)N[C@H](C(=O)NCCN2CCOCC2)C(C)C)c(=O)c2cc3c(cc21)OCO3,0.38,-1.1
CC(CCc1ccccc1)NC(=O)C1CCN(S(=O)(=O)c2ccc(F)cc2)CC1 (stereo unspecified),0.97,-0.28
Cc1ccc(-c2nnc(-n3ncc(C#N)c3N)c3ccccc23)cc1C,0.67,0
CCn1nc(NC(=O)c2ccccn2)c2cc3cc(C)ccc3nc21,1.1,0.08
COc1ccc(/C=N\NC(=O)CC(=O)Nc2cccc(Cl)c2)cc1OC,0.5,-2.4
Cc1ccc(OCC(=O)NNC(=O)C(=O)N2CCCC2)c(C)c1,1.9,-0.89
Cc1cc(C)c2nc(SCC(=O)NCCC3=CCCCC3)cc(C)c2c1,0.21,0.3
CCCCCc1c(C)nc(N2CCOCC2)[nH]c1=O,0.95,-0.05
O=C(CCCSc1nc2ccccc2[nH]1)NC1=NCCS1,1.5,-0.69
C/C(N)=C(/C#N)C(=O)CSc1nc2ccccc2c(=O)n1CCCO,0.91,-1.3
Cc1cc(C)nc(NS(=O)(=O)c2ccc(NC(=O)Cc3ccc(F)cc3)cc2)n1,0.01,0.21
COC(=O)c1cc(C#N)c(N2CCOCC2)nc1C,0.12,-0.83
Cc1ccc(NC(=O)C(C)NS(=O)(=O)c2ccc(F)cc2)cc1C (stereo unspecified),0.25,-1.3
CCN(CC)C(=O)CSc1nnc(-c2cc(OC)cc(OC)c2)o1,1.1,-1.1
CC(=O)CC1(O)C(=O)N(CN2CCN(c3ccccc3)CC2)c2ccccc21 (stereo unspecified),0.02,0.43
O=C1c2ccccc2C(=O)c2c1ccc1c(=O)n(-c3ccccc3)[nH]c21,0.4,0.22
COc1cc(C)nc(Oc2ccc(OCc3ccccc3)nn2)n1,0.53,-0.02
COC(=O)C1=C(C)NC(C)=C(C(=O)OC)C1/C=C/c1ccccc1,2.7,0.01
Cc1ccc2[nH]c(=O)c(COC(=O)C3CCCO3)cc2c1 (stereo unspecified),0.64,0.04
COc1ccc(CCNC(=O)COc2ccc(S(=O)(=O)NC(C)C)cc2Cl)cc1OC,0.26,1.6
O=C(Nc1ccccc1NC(=O)c1c(F)cccc1F)c1c(F)cccc1F,0.08,1.9
CCOc1ccc(C2/C(=C(/O)c3ccc4c(c3)CC(C)O4)C(=O)C(=O)N2CC2CCCO2)cc1 (stereo unspecified),0.28,-0.39
CCNC(=O)C12CCC(C)(C(=O)C1Br)C2(C)C (stereo unspecified),0.09,-0.31
COC(=O)c1cc(-c2ccc(S(=O)(=O)N3CCCCC3)cc2)c(C(F)(F)F)s1,0.49,0.57
COc1ccc(/C=N/Nc2cc(C)nc(-n3nc(C)cc3C)n2)cc1,1.4,0.46
Cc1nc(NC(=O)CN2CCN(c3cccc(Cl)c3)CC2)sc1C(=O)N(C)C,1.5,-1.5
COCCNC(=S)N1CCC(C(=O)c2ccc3c(c2)OCCO3)CC1,0.12,0.18
COc1ccc(Br)cc1C1NC(=O)NC(C)=C1C(=O)N(C)C (stereo unspecified),1.1,0.72
Cc1nnc(SCC(=O)Nc2cccc(C(F)(F)F)c2)[nH]c1=O,0.17,-0.19
NC(=O)Nc1ccc(Nc2ccccc2)cc1,0.67,0.01
COc1ccc(Cc2nnc(NC(=O)c3ccco3)s2)cc1OC,1.2,-1.1
CN(Cc1cccc(C(F)(F)F)c1)Cc1nc(-c2cnccn2)no1,1.2,-0.02
CCOc1ccc(NS(=O)(=O)c2ccc(N)cc2)cc1,0.16,0.03
COc1ccc(C(C#N)c2ccc(Cl)nn2)cc1 (stereo unspecified),1.9,-0.07
C/C(=N\NC(=O)c1cccc([N+](=O)[O-])c1)c1cccs1,0.37,-1.3
Cc1c(Br)c([N+](=O)[O-])nn1CC(=O)Nc1ccc(C(C)C)cc1,0.06,-1.5
CC1Sc2ccc(S(=O)(=O)CCC(=O)N3CCN(c4cccc(Cl)c4)CC3)cc2NC1=O (stereo unspecified),1.1,0.05
COc1ccc(-c2nnc(SCCOc3cccc(C)c3)n2N)cc1,0.85,-1.3
COc1cccc(C(=O)NCCNC(=O)c2ccccn2)c1,0.57,0.01
Cc1ccc(-n2c(=S)[nH]c3c(oc4ccccc43)c2=O)cc1C,1.6,0.11
CC1=C(C(=O)Nc2ccc(C(=O)NCCC(C)C)cc2)SCCO1,0.53,-0.64
CCN1C(=O)C(CC(=O)Nc2ccc(OC)cc2)N(CCCN2CCN(c3ccc(F)cc3)CC2)C1=S (stereo unspecified),0.45,0.19
COC(=O)CN1C(=S)N(c2ccc(F)cc2)C(=O)C1CC(=O)Nc1ccc(OC)cc1 (stereo unspecified),0.2,-0.28

# The final five entries of the part above lead into the next.
mol,KCNQ2 enhance,KCNQ2 enhance baseline
COc1cccc(C(=O)NCCNC(=O)c2ccccn2)c1,0.57,0.01
Cc1ccc(-n2c(=S)[nH]c3c(oc4ccccc43)c2=O)cc1C,1.6,0.11
CC1=C(C(=O)Nc2ccc(C(=O)NCCC(C)C)cc2)SCCO1,0.53,-0.64
CCN1C(=O)C(CC(=O)Nc2ccc(OC)cc2)N(CCCN2CCN(c3ccc(F)cc3)CC2)C1=S (stereo unspecified),0.45,0.19
COC(=O)CN1C(=S)N(c2ccc(F)cc2)C(=O)C1CC(=O)Nc1ccc(OC)cc1 (stereo unspecified),0.2,-0.28
Cc1nc(N2CCN(C)CC2)c2c3c(sc2n1)CCCC3,0.19,-2.7
COc1ccccc1N1CCN(C(=O)CNC(=O)c2cn(-c3ccccc3OC)c(=O)c3ccccc23)CC1,0.92,-1.2
COc1ccc(N/C(C)=C2/C(=O)C(=O)N(CCO)C2c2ccc(Br)cc2)cc1 (stereo unspecified),0.23,-1.1
N/C(=N\OC(=O)c1ccc(Br)cc1)c1cccc([N+](=O)[O-])c1,1.1,-0.4
Cc1cc(C)cc(CSc2nnc(C)c(=O)[nH]2)c1,0.33,-1.1
COCCNC(=O)C1CC(=O)N(C2CCCC2)C1 (stereo unspecified),1.8,0.8
O=C(COc1ccccc1[N+](=O)[O-])Nc1ccc2oc(=O)ccc2c1,0.57,0.51
CCN(CC)C(=O)Cn1cc(C(=O)C(=O)NCCc2c[nH]c3ccccc23)c2ccccc21,0.24,-0.1
COc1ccc(CCn2c(C)cc(C(=O)CSc3nnnn3-c3ccccc3)c2C)cc1OC,1.3,-2.1
COc1ccccc1C(=O)Nc1cc(Cl)ccc1O,0.72,0.6
CC1CCCC(C)N1C(=O)Cc1ccccc1 (stereo unspecified),1.6,-0.14
Cc1cc(OCC(O)CN2CCN(CCO)CC2)ccc1C(C)C (stereo unspecified),1.2,0.12
CCC(O)C1CCN(Cc2cn(Cc3ccccc3)nc2-c2cc3ccccc3o2)CC1 (stereo unspecified),0.01,1.7
CCCc1[nH]n(-c2ccc([N+](=O)[O-])cc2)c(=O)c1C=NCCc1c[nH]c2ccccc12,0.85,0.71
CC1(C)CC(=O)C2=C(C1)Nc1ccccc1NC2c1ccc([N+](=O)[O-])cc1 (stereo unspecified),0.22,0.7
CC1(C)CC(C)(O)N(Cc2ccccc2)C(=S)N1 (stereo unspecified),2.4,-0.77
CC(CNC(=O)CCc1nnc2ccc(N3CCC4(CC3)OCCO4)nn12)c1ccccc1 (stereo unspecified),1.4,-0.35
COC(=O)c1cc(OC)c(OC)cc1NC(=O)c1cccc(C)c1,0.06,0.48
COc1cc(C2C=C(Nc3ccccc3)C(=O)N2c2ccccc2)ccc1O (stereo unspecified),0.74,0.25
Cc1cc(NS(=O)(=O)c2ccc(NC(=O)c3cc4cc(Br)ccc4oc3=O)cc2)no1,0.61,-1.9

# High-throughput results as filed in PubChem.
